P. yoelii liver – exo-erythrocytic parasite development inhibition – imaging, Malaria Box, P. yoelii, HepG2-A16-CD81EGFP, dose response (AID 602156); calls after a first round at 10 µM; hits with a dose series show IC50 in µM; P. yoelii liver stage in HepG2-A16-CD81EGFP, imaging; first-round cut-off not given here; 5,700 compounds, 4.8% hits; in the data active means a potency from the dose series;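 further: infected cells exposed to compound for 48 hours before fixation; stained parasite area by imaging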
An asterisk follows results filed as active; i = inactive. These rows are one share of the data, so the mix of outcomes need not match the whole.

P. yoelii liver | mol
i | CC1=C(C(=O)OC2CCCCC2)C(c2ccc(F)c(F)c2)C2=C(CCCC2=O)N1 (stereo not drawn)
i | Oc1cccc(C=Nc2ccccc2)c1O
i | COc1cc(OC)c(NC(=O)C2c3ccccc3C(=O)N(C)C2c2ccc(OC)c(OC)c2)cc1Cl (stereo not drawn)
i | CCCCc1ccc(C(=O)N(CCc2ccccc2)C(CC)c2nc3ccccc3c(=O)n2-c2ccccc2OC)cc1 (stereo not drawn)
i | CCCCN1C(=O)/C(=C2/Sc3ccccc3N2C)SC1=Nc1cc(C)ccc1C
i | CN(CCCNc1ccnc2cc(Cl)ccc12)S(=O)(=O)c1ccc(Br)cc1
i | COc1ccc(C2CC(c3cccs3)=NN2C(=O)CSc2nnc(CNC(=O)c3cccs3)n2-c2cccc(C)c2)cc1 (stereo not drawn)
i | CC(C)COc1ccc(C(=O)N/C(=C/c2ccccc2)C(N)=O)cc1
i | Cc1cccc(NC(=O)C2C3C=CC4(O3)C2C(=O)N(CC2COc3ccccc3O2)C4C(=O)NC2CCCC(C)C2C)c1 (stereo not drawn)
i | CCn1c(SCc2ccc([N+](=O)[O-])cc2)nc2sc3c(c2c1=O)CCN(C)C3
i | C=CCNC(=O)c1ccc2c(c1)N=C(CC(C)c1ccccc1)N(CC1CCCCC1)C2 (stereo not drawn)
0.225µM* | O=C1c2ccccc2-n2c1nc1ccccc1c2=O
i | CCCCCCN(C(=O)COCc1ccccc1)C(C)c1nc2ccccc2c(=O)n1-c1cccc(Cl)c1C (stereo not drawn)
i | CCC(c1nc2cc(Cl)ccc2c(=O)n1CC)N(CC)C(=O)c1ccc2ccccc2c1 (stereo not drawn)
i | CCOC(=O)c1c(-c2ccc3c(c2)OCO3)[nH]c2cccc(OC)c2c1=O
0.0748µM* | CC(C)NC(=O)c1cc(NC(=O)c2cccs2)ccc1N1CCc2ccccc2C1
i | CCOC(=O)C1=C(C)NC2=C(C(=O)CC(c3ccc(OC)cc3)C2)C1c1cccs1 (stereo not drawn)
i | CCNC(=O)C=Cc1ccc(C(C)(C)C)cc1
i | CC(C)NC(=O)N1CCN(C(=O)COC(c2cccs2)c2cccnc2Cl)CC1 (stereo not drawn)
i | Cc1ccn2c(NC(C)(C)CC(C)(C)C)c(-c3ccccc3OC(=O)CCCCl)nc2c1
i | c1ccc(-c2ccc(CNc3ccc4cn[nH]c4c3)cc2)cc1
i | CC(C)CCn1nc(C(=O)N2CCOCC2)c2c1CCN(C(=O)c1ccc(N3CCOCC3)cc1)C2
i | Cc1cc2c(cc1C)-c1c(ssc1=Nc1cccc(C)c1C)C(C)(C)N2
i | Cc1ccccc1NC(c1cccc(Cl)c1)c1nnnn1C1CCCCC1 (stereo not drawn)
i | CCCCn1c(=N)n(CC(O)c2ccc(Br)cc2)c2ccccc21 (stereo not drawn)
i | CCCCNC(=O)c1ccc(OC2CCN(CC3CCCCC3)CC2)c(Cl)c1
i | CCOc1ccc2nc(C)cc(Nc3ccc(Br)cc3)c2c1
i | COc1ccc(OC)c(C2CC(=O)N3CN(Cc4ccccc4)CSC3=C2C#N)c1 (stereo not drawn)
i | O=C(Nc1cc(Oc2ccc(F)cc2)cc([N+](=O)[O-])c1)c1nc2nc(-c3ccccc3)cc(C(F)(F)F)n2n1
i | CNc1nc(Cl)nc(Nc2ccccc2)n1
i | O=C(Nc1ccc(F)c(F)c1)c1ccccc1[N+](=O)[O-]
i | COc1cc(OC)nc(CSc2ccc(NC(=O)CCl)cc2)n1
i | CCC[P+](CCC)(CCC)CC1OCc2ccccc2CO1
i | CN1c2ccccc2N(C)C1c1ccco1
i | c1cc2cc3c(cc2c2cc4c(cc12)C[N+]1(CCCC1)C4)C[N+]1(CCCC1)C3
i | CC(C)c1ccc(NC(=O)/C=C/c2ccccc2Cl)cc1
i | O=C(/C=C/Nc1ccccc1NS(=O)(=O)c1ccc([N+](=O)[O-])cc1)c1ccccc1
i | CN(CCCNc1ccnc2cc(Cl)ccc12)C(=O)CC(C)(C)C
i | CCOc1ccc(-c2nonc2NC(=O)c2ccco2)cc1OCC
i | C/C=C/c1n(C)c2ccccc2[n+]1C
i | N#CC(=Cc1ccccc1OCc1ccc(Cl)cc1Cl)c1nc2ccccc2[nH]1
i | CCCCNC(=O)CCCNC(=O)Cn1cnc2sc3c(c2c1=O)CCCC3
i | COc1ccc(C2c3[nH]c4ccccc4c3C[C@@H]3C(=O)N(CCC(C)C)CC(=O)N23)cc1 (stereo partly drawn)
i | CCC(CC)C(=O)N1CCOc2c(cc(-c3csc4ccccc34)cc2OCc2ccccn2)C1
i | CC(C)CNC(=O)c1cnc(NCCCn2ccnc2)nc1NCC(C)C
i | c1ccc(CN2CCC(NCc3c[nH]c4ccccc34)CC2)cc1
i | CN(C)c1nnc(/C(C#N)=C/c2cc(C(=O)c3cccc(Cl)c3)cn2C)o1
i | C(=NNc1nc2ccccc2[nH]1)c1ccccc1
i | Cc1ccc2ccc3ccc(C)nc3c2n1
i | CC(=O)Nc1cccc(NC(=O)CSc2ccc3nnc(-c4ccc(F)cc4)n3n2)c1

Later entries:
P. yoelii liver | mol
i | C[n+]1cccc(C=C2c3ccccc3-c3ncccc32)c1
i | Cn1nc(C(=O)Nc2ccc(F)c(Cl)c2)c2c1-c1ccccc1S(=O)(=O)C2
i | COc1cc2c(OC3OCC(OC)C(OC)C3O)c3c(c(-c4ccc5c(c4)OCO5)c2cc1OC)C(=O)OC3 (stereo not drawn)
i | CCN1C(=CC2=CC(=Cc3ccc4ccccc4[n+]3CC)CC(C)(C)C2)Sc2ccccc21
i | CCOC(=O)c1c(C)nc2c(c1C)c(=O)oc1ccccc12
i | COc1cc(C2Nc3ccc4ccccc4c3C3=C2C(=O)CC(C)(C)C3)ccc1Oc1ccc([N+](=O)[O-])cc1C(F)(F)F (stereo not drawn)
i | COc1cc(C=CC(=O)Nc2c3c(nn2-c2ccc(F)cc2)CSC3)cc(OC)c1OC
i | CC(=O)Nc1ccc(C2NC(=O)NC3=Nc4ccccc4SC(c4ccccc4)=C32)cc1 (stereo not drawn)
i | CC(C)(C)NC(=O)c1cn(C2CCCCC2)cc(C(=O)NC2CCN(Cc3ccccc3)C2)c1=O (stereo not drawn)
0.244µM* | CCCCc1c(CCC)c(=N)c2ccccc2n1C
i | CC(C)(C)CC(C)(C)Nc1c(-c2ccccc2OC(=O)c2ccc(Cl)cc2Cl)nc2ccccn12
i | OC(CN1CCN(C2c3ccccc3-c3ccccc32)CC1)Cn1c2ccc(Cl)cc2c2cc(Cl)ccc21 (stereo not drawn)
i | Cc1c(C(=O)Nc2ccccc2)sc2ncn(Cc3ccccc3F)c(=O)c12
i | CN(C)CCCNc1ncnc2c1[nH]c1ccc(F)cc12
i | CCOC(=O)C1=C(C)NC2=C(C(=O)CC(c3ccc(OC)c(OC)c3)C2)C1c1cccc(Cl)c1Cl (stereo not drawn)
i | O=C(Cn1c(=O)oc2cc(Cl)ccc21)c1ccccc1
i | COC(=O)C1=C(O)C(=Cc2cc(C)n(-c3ccccc3F)c2C)N=C1C
i | COc1ccc(-c2c[n+](Cc3ccc(Cl)c(Cl)c3)c3n2CCC3)cc1
i | CCOC(=O)c1c[nH]c2c(ccc3ccccc32)c1=O
i | Cc1nc(-c2ccncc2)nc(NCCNc2ccc(C(F)(F)F)cn2)c1Cl
i | CCOC(=O)C1=C(C)NC2=C(C(=O)C(C(=O)OCC)C(c3ccccc3OC)C2)C1c1ccc(OC)c(OC)c1 (stereo not drawn)
i | Cc1[nH]c2ccc(Cl)cc2c(=O)c1I
i | CCc1ccc2[nH]cc(C(=O)OCCOC)c(=O)c2c1
i | O=C(Nc1ccccc1O)c1ccc(Cl)cc1
i | COC(=O)c1ccc2c(=O)n(Cc3ccc4c(c3)OCO4)c(SCC(=O)n3nc(C)cc3N)nc2c1
i | CNC(=O)c1nn(C)c2c1CC(NCC1CCCCC1)CC2 (stereo not drawn)
i | CCn1c(SCc2ccc(Cl)cc2Cl)nc2sc3c(c2c1=O)CCN(C)C3
i | Cc1cc(/C=C2\SC(=Nc3ccccc3)NC2=O)c(C)n1-c1ccccc1
i | CCC(CC)=NNC(=O)C(=O)NC1CCCCC1
i | CC(C)CNC(=O)c1cnc(NCCCN(C)C)nc1NCCc1ccccc1
i | CSc1cccc([C@@H]2C[C@H]3CN(c4ccccc4)C(=O)[C@]34CCCN24)c1
i | CO[C@H]1[C@@H](C)[C@@H]([C@H](C)C2O[C@@]3(CC[C@@](C)([C@H]4CC[C@@](C)([C@@H]5O[C@@H]([C@H]6O[C@](C)(O)[C@H](C)C[C@@H]6C)C[C@@H]5C)O4)O3)C[C@H](O)[C@@H]2C)O[C@@](O)([C@H](C)C(=O)O)[C@H]1C (stereo partly drawn)
i | NC(Cc1ccccc1)C(=O)N1CCC(Nc2nsc3ccccc23)C1 (stereo not drawn)
i | COc1cccc(CN2CCc3nc(N4CCCCC4)sc3C2)c1
i | CCc1ccccc1NC(C)=O
i | COc1ccc(C2CC(=O)C3=C(C2)NC(C)=C(C(=O)OC2CCCC2)C3c2ccccc2)cc1 (stereo not drawn)
i | COc1cccc2c1OCC(CN1CCC(C(=O)Nc3ccc(-n4cccn4)cc3)CC1)=C2
i | Cc1ccc(-c2cc(C(F)(F)F)n3nc(C(=O)Nc4cccc(Cl)c4Cl)cc3n2)cc1
i | CC(C)CNc1nc(NCCCn2ccnc2)ncc1C(=O)NCc1ccccc1
i | Cc1ccccc1C(=O)NCCCCNc1ccnc2cc(Cl)ccc12
i | O=C(Nc1ccc(Oc2cccnc2)cc1)C1CCN(Cc2ccc3nonc3c2)CC1
i | CCN(CC)CCCC(C)NC(=O)CSc1nc2ccccc2c(=O)n1-c1cccc(Cl)c1 (stereo not drawn)
i | O=C(N/C(=C/C=C\c1ccccc1)C(=O)N1CCOCC1)c1ccc(Br)cc1
i | CCOc1cccc2c(C)nc(N=C(N)N)nc12
i | Cc1ccc2c(c1)c(-c1ccccc1)c(-c1ccccc1)n2CC(O)CN1CCN(Cc2ccccc2)CC1 (stereo not drawn)
i | COC(CNc1cc(-c2ccccn2)nc(-c2ccccn2)n1)OC
0.113µM* | O=C1C2=C(Nc3ccccc3SC2c2ccco2)c2ccccc21 (stereo not drawn)
i | O=C(CSc1nccn1C1CCCC1)Nc1cc(C(F)(F)F)ccc1Cl
i | COc1ccc(OC)c(-c2ccc(O)c(CNC3CCCCCC3)c2)c1
i | COC(=O)COc1ccc(C=C2SC(=Nc3ccc(F)cc3)NC2=O)cc1

5 neighbouring records from above, for reference:
P. yoelii liver | mol
i | CNC(=O)c1nn(C)c2c1CC(NCC1CCCCC1)CC2 (stereo not drawn)
i | CCn1c(SCc2ccc(Cl)cc2Cl)nc2sc3c(c2c1=O)CCN(C)C3
i | Cc1cc(/C=C2\SC(=Nc3ccccc3)NC2=O)c(C)n1-c1ccccc1
i | CCC(CC)=NNC(=O)C(=O)NC1CCCCC1
i | CC(C)CNC(=O)c1cnc(NCCCN(C)C)nc1NCCc1ccccc1

Arranged by formula weight (low to high): four of the compounds above
P. yoelii liver | mol
i | CNc1nc(Cl)nc(Nc2ccccc2)n1
i | Cc1ccccc1C(=O)NCCCCNc1ccnc2cc(Cl)ccc12
i | CCOC(=O)C1=C(C)NC2=C(C(=O)CC(c3ccc(OC)cc3)C2)C1c1cccs1 (stereo not drawn)
i | O=C(N/C(=C/C=C\c1ccccc1)C(=O)N1CCOCC1)c1ccc(Br)cc1

Back to the main list; the 3 compounds before the break are reprinted first.
P. yoelii liver | mol
i | O=C(CSc1nccn1C1CCCC1)Nc1cc(C(F)(F)F)ccc1Cl
i | COc1ccc(OC)c(-c2ccc(O)c(CNC3CCCCCC3)c2)c1
i | COC(=O)COc1ccc(C=C2SC(=Nc3ccc(F)cc3)NC2=O)cc1
i | O=C(Nc1ccc(Cl)cc1Cl)c1ccc(-c2nc(-c3ccccc3Cl)cs2)cc1
i | N=c1c2c(n(Cc3ccccc3Cl)c3c1CCC3)CCCC2
i | O=C(Nc1ccc(-c2nc3ccc(NC(=O)c4ccc(Br)cc4)cc3[nH]2)cc1)c1ccc(Br)cc1
i | COc1ccc(S(=O)(=O)N=C2C=C(Nc3ccccc3OC)C(=O)c3ccccc32)cc1
i | COc1cc(OC)c(N(C)C(=O)c2cn(C3CCCC3)c(=O)c3c2c2ccccc2n3C)cc1Cl
i | Cc1ccc(NC(=O)c2c(I)cnn2C)cc1[N+](=O)[O-]
i | CC(=O)N(C1=C(N2CCOCC2)C(=O)c2ccccc2C1=O)c1ccc(Cl)c(Cl)c1
i | Clc1cccc(Cl)c1C[n+]1ccc2ccccc2c1
i | CCc1nc2nc(C)cc(Nc3ccc(I)cc3)n2n1
i | O=C(c1ccc([N+](=O)[O-])cc1)c1ccc(N2CCOCC2)c([N+](=O)[O-])c1
i | O=C1CC(c2ccccc2)CC2=C1C(c1ccccc1[N+](=O)[O-])Nc1ccccc1N2 (stereo not drawn)
i | Cc1cc(N2CCN(Cc3ccccc3)CC2)n2c(nc3ccccc32)c1C#N
i | O=S(=O)(NC1CCCC1)c1cccc2nonc12
i | CC(C)(C)c1ccc(C(=O)C[n+]2cc(-c3ccccc3)n3c2CCC3)cc1
i | CCCc1nc2ccc(NC(=O)NCC)cc2c(=O)n1Cc1ccc(-c2ccccc2)cc1
i | CCOC(=O)C1=C(c2ccccc2)N=c2sc(=Cc3cc(OC)c(OC)c(OC)c3)c(=O)n2C1c1c(OC)ccc2ccccc12 (stereo not drawn)
i | COc1ccc(N2C(N)=NC(N)=NC2(C)C)cc1
i | CCCCCOC(=O)C1=C(C)NC2=C(C(=O)CCC2)C1c1ccc(OC)c(Br)c1 (stereo not drawn)
i | COc1ccc(Nc2nc(NN=Cc3cccc([N+](=O)[O-])c3)nc(Nc3ccc([N+](=O)[O-])cc3)n2)cc1

Assay outcomes from PubChem BioAssay.
